# Source: PubChem BioAssay
# SARS PLP yeast – qHTS of Yeast-based Assay for SARS-CoV PLP | S. cerevisiae expressing SARS-CoV PLpro, growth rescue; control for the full effect not named in the record | Potency, µM (highest dose often 32.9 µM), for the others: at the top dose activity, positive = growth rescue | hit rate 0.19% among 330,000 | AID 485353, 2010; active means well fitted rising curve with a large enough effect; inconclusive means small, poorly fitted or top-dose-only effect; inactive means no such curve, though single readings can be large or run the other way; note: 0% is about no effect; nearly all actives have a fitted effect of over 55% in size; growth read by luminescence after 48 h
# MARV entry inh – qHTS for inhibitors of binding or entry into cells for Marburg Virus; AID 540276, 2011; Marburg virus pseudotyped entry inhibition, cell reporter; control for the full effect not named in the record; about a third of the inactives were read at about 46 µM; Potency, µM (doses to about 37.8 µM), for the others: at the top dose activity change, negative = inhibition, usual class: inhibitors; hit rate 1.8% among 300,000; active = well fitted inhibition curve with a large enough effect; inconclusive = small, poorly fitted or top-dose-only effect, or effect the other way; inactive = flat fitted curve, though single readings scatter; tested in HEK293 cells; about a fifth of its hits are not listed in these tables; note: % is set by controls: 0 for no effect and ±100 for the full control effect; luciferase read-out
# RE007 growth inh – qHTS Assay for Inhibitors of the HIV-1 protein Vpr; hit rate 0.21% among 360,000; S. pombe RE007 Vpr strain, BacTiter-Glo ATP luminescence, 24 h; control for the full effect not named in the record; AID 651644, 2012; Potency, µM (doses to about 92.2 µM), for the others: at the highest dose activity change, negative = less growth; active = well fitted falling curve with a large enough effect; inconclusive = small, poorly fitted or top-dose-only effect; inactive = no such curve, though single readings can be large or run the other way;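 note: % is set by controls: 0 for no effect and ±100 for the full control effect; nearly all actives have a fitted effect of over 50% in size; the assay follows cell death caused by Vpr and the record does not say whether a fall means rescue or toxicity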
#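 Fission yeast strain RE007, carrying one chromosomally integrated HIV-1 vpr copy, was seeded at OD 0.01 in PMG+AL medium with 23 nL pinned compound. After 24 h at 30 °C and 99% humidity, viability was read by BacTiter-Glo luminescence.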
# NS1 inh – qHTS Assay for Inhibitors of Influenza NS1 Protein Function; S. cerevisiae slowed by influenza A NS1, growth recovery by OD600; Potency, µM (titrated, usually from 46.1 µM), without a hit: at the highest dose activity, positive = more growth; hit rate 0.4% among 270,000; AID 2326, 2010; active means well fitted rising curve with a large enough effect; inconclusive means small, poorly fitted or top-dose-only effect; inactive means no such curve, though single readings can be large or run the other way; note: nearly all actives have a fitted effect of over 50% in size
#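 OD600 was taken as the measure of yeast growth restored by compound in an NS1-expressing S. cerevisiae strain. Cells had been washed out of glucose medium and diluted 1:100 into galactose -URA medium, pH 6.0.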
# 2A StopGo – High Throughput Screening for Foot and Mouth Disease Virus Antivirals. Potency, µM (series often up to 57.9 µM), for inactives: at the highest dose signal change, negative = less light. human cells with a luciferase reporter of 2A StopGo recoding; control for the full effect not named in the record. hit rate 1.2% among 410,000. AID 1159524, 2015; active = well fitted falling curve with a large enough effect; inconclusive = small, poorly fitted or top-dose-only effect; inactive = no such curve, though single readings can be large or run the other way; tested in HEK293T cells; note: % is set by controls: 0 for no effect and ±100 for the full control effect; nearly all actives have a fitted effect of over 45% in size; luciferase light after 4 h
# Lassa entry inh – qHTS for Inhibitors of binding or entry into cells for Lassa Virus; Potency, µM (top dose mostly 37.9 µM), for inactives: at the top dose activity change, negative = inhibition, actives largely listed as inhibitors; hit rate 1.2% among 300,000; Lassa virus pseudotype entry inhibition, cell reporter; control for the full effect not named in the record; active means well fitted inhibition curve with a large enough effect; inconclusive means small, poorly fitted or top-dose-only effect, or effect the other way; inactive means flat fitted curve, though single readings scatter; tested in HEK293 cells; note: % is set by controls: 0 for no effect and ±100 for the full control effect; nearly all actives have a fitted effect of over 50% in size; luciferase read-out
# Cruzain inh noDet – qHTS Assay for Promiscuous and Specific Inhibitors of Cruzain (without detergent); Cruzipain (Trypanosoma cruzi), P25779; Potency, µM, without a hit: max response, negative = inhibition, most hits filed as inhibitors; AID 1476, 2009; purified cruzain, Z-FR-AMC fluorescence, no detergent; hit rate 2.3% among 200,000;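 note: plate controls were enzyme without inhibitor for no effect and buffer without enzyme for full effect; nearly all actives have a fitted effect of over 40% in size; top concentration of the series not given in the record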
# Target sequence (P25779 123-467 limits assumed): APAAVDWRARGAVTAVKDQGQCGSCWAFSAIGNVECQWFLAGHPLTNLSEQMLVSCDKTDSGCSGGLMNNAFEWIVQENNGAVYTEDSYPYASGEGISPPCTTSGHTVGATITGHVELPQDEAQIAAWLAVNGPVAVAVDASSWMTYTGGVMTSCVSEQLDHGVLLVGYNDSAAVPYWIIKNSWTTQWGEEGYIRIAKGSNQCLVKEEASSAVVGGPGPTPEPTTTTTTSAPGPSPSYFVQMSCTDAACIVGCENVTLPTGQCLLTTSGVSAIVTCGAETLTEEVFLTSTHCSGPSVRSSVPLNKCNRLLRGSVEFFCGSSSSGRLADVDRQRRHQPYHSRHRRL
#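 Detergent-free condition (0.00005% Triton X-100) in acetate buffer pH 5.5 with DTT. 1.5 nM enzyme and compound were pre-mixed 15 min, then 2 uM Z-FR-AMC substrate added; reaction progress from fluorescence change between first and third reads (60 s).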
# Cruzain inh Det – qHTS Assay for Promiscuous and Specific Inhibitors of Cruzain (with detergent) | hit rate 0.43% among 200,000 | Potency, µM, for inactives: max response, negative = inhibition, hits mostly inhibitors | AID 1478, 2009 | Cruzipain (Trypanosoma cruzi), P25779 | purified cruzain, Z-FR-AMC fluorescence, 0.01% Triton;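 note: plate controls were neutral wells for no effect and buffer without enzyme for full effect; nearly all actives have a fitted effect of over 40% in size; top concentration of the series not given in the record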
#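 Enzyme 1.5 nM, Z-FR-AMC 2 uM, NaOAc 100 mM pH 5.5, DTT 5 mM, Triton X-100 0.01%; 15 min RT compound preincubation; kinetic ex360/em450, 60 s delta.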
# * marks the source's active call; other numbers are inactive results; ? = inconclusive; . = no result given; & = joins results of further samples; [ ] = dose if it differs, or a comment. Unless noted, calls come from the whole dose curve; as a rule, active = well fitted curve in the direction sought with a large enough effect; inconclusive = small, poorly fitted or top-dose-only effect, or another doubt; inactive = no such curve, though single readings can be large; an effect the other way counts as inactive or inconclusive. Potency is the fitted concentration of half-maximal effect.
Structure	SARS PLP yeast	MARV entry inh	RE007 growth inh	NS1 inh	2A StopGo	Lassa entry inh	Cruzain inh noDet	Cruzain inh Det
COc1ccc(COC(=O)N/N=C(\C)CC(=O)Nc2ccc(Cl)cc2)cc1	-21%	-10%	-2%	5%	-24%	0.14µM*	1%	-5.5%
CC1(C)CC(=O)C(/C=N/n2c(C(F)(F)F)nc3ccccc3c2=O)=C(O)C1	?	0%	3%	5%	.	10%	7%	-4.3%
CCCCn1c(N)c(N(C)C(=O)c2ccc(OCC3CCCO3)cc2)c(=O)[nH]c1=O (stereo not given)	2%	4%	18%	.	-17%	13%	.	.
CCn1c(SCC(=O)N(C)C2CCS(=O)(=O)C2)nnc1-c1ccccc1 (stereo not given)	0%	9%[46.1 µM]	-10%	.	-13%	5%[46.1 µM]	.	.
COc1ccc(Nc2ncc(C(=O)N3CCC4(CC3)OCCO4)c3ccccc23)cc1	5%	13%	10%	-15%	-14%	-23%	-11%	-5.2%
Nc1ccc2nn(-c3cccc4ccccc34)nc2c1	-5%	?	-11%	-4%	-26%	-10%	?	-3.1%
CCCCc1nnc(NC(=O)c2ccc(-n3cncn3)c([N+](=O)[O-])c2)s1	0%	-4%[46.1 µM]	3%	.	-2%	3%	.	.
Cc1cccc(Cn2c(N(C)Cc3ccccc3)nc3c2c(=O)[nH]c(=O)n3C)c1	-2%	.	9%	-83%	?	.	-14%	0.9%
CCOC(=O)CSc1nc(C)c(C(C)=O)cc1C#N	13%	6%&6%	9%[3.69 µM]	-13%	-13%	?	6%	-4.1%
Cc1ccc(Cc2cnc(N3C(=N)SC(c4ccccc4)C3=O)s2)cc1 (stereo not given)	8%	?	.	5%	0%	18%	?	-0.1%
O=C1c2ccccc2N2C(=O)c3ccccc3C2N1O (stereo not given)	-6%	9%	-6%	-65%	-5%	14%	0%	4.3%
C[C@@H](C(=O)NC1CCN(Cc2ccccc2)CC1)N1C(=O)N2CCc3c([nH]c4ccccc34)[C@@]2(C)C1=O	-2%	.	-16%	3%	?	.	.	.
COc1cc(C(=O)Nc2sc3c(c2C(N)=O)CCC(C)C3)cc(OC)c1OC (stereo not given)	.	.	.	.	12%	3%[46.1 µM]	-4%	-5.6%
CCc1nnc(SCc2nc(-c3ccccc3)oc2C)c2cc3sccc3n12	.	.	.	.	12%	-5%[46.1 µM]	-24%	-3.5%
CCCOCC(O)CC(Cc1ccccc1)C(=O)NN (stereo not given)	1%	.	-8%	5%	0%	.	.	.
COc1ccc(CNC(=O)CCCn2ccc3cc(S(=O)(=O)N4CCCC4)ccc32)cc1	9%	.	18%	4%	-19%&-29%	-27%[46.1 µM]	12%	-5.1%
O=C(NN=C1CCC(=NNC(=O)c2ccccn2)CC1)c1ccccn1	0%	?	4%	1%	16%	4%	.	.
CC(=O)Nc1cc(C)c2nc(NC(C)=O)sc2c1	-5%	19%	-8%	8%	44%[activator]	9%	.	.
Nc1ccc(Nc2nc(-c3cc4ccccc4oc3=O)cs2)cc1	-1%	?	?	17%	0%	?	.	.
CC(NC(=O)CSc1nc2c(cc1C#N)CN(C)CC2)c1ccccc1 (stereo not given)	-5%	18%	-20%	15%	-10%	17%	1%	-4.9%
CCCSC(=S)c1c(C)[nH]n(-c2ccccc2)c1=O	-2%	?	-17%	-36%	4%	?	.	.
COc1cc2[nH]c(C(=O)N(C)Cc3ccccc3)cc2c(OC)c1OC	-3%	.	1%	-7%	25%	.	.	.
Nc1ccc(S(=O)(=O)Nc2nccc(/C=C/c3ccc([N+](=O)[O-])cc3)n2)cc1	-5%	-18%[46.1 µM]	-4%	3%	-1%	-1%	.	.
NC(=O)c1nsc(C(=O)N(Cc2cccnc2)C(C(=O)NCc2ccccc2)c2ccc(O)cc2)c1N (stereo not given)	-2%	-2%[46.1 µM]	22%	-10%	-5%	?	.	.
N/C(=N\OC(=O)Cc1ccccc1)c1ccncc1	-1%	6%	-7%	-1%	-4%	0%	.	.
COc1ccc(-n2c3c(cc(C#N)c2=O)C(=O)CCC3)cc1	-5%	?	10%	.	5%	-1%	.	.
Cc1ccc(S(=O)(=O)N2CCC(=O)N(C(COCc3ccc(C(F)(F)F)cc3)C(C)C)CC2)cc1 (stereo not given)	-17%	?	-13%	6%	?	13µM*	?	-4.9%
CC(=O)N/C(=N\c1nc(C)cc(C)n1)Nc1ccccc1Cl	13%	0%[46.1 µM]	-15%	-6%	-10%	2%[46.1 µM]	.	.
CCN1CCN(S(=O)(=O)c2c(C)cc(C)cc2C)CC1	13%	.	3%	9%	-25%	.	.	.
CCN(CC)C(=N)/C(C#N)=N/Nc1ccccc1	0%	9%	1%	-4%	89%[activator]	13%	.	.
Cc1ccc(NC(=O)Nc2cccc(Cl)c2)c(C(=O)O)c1	0%	.	2%	0%	55%[activator]	.	.	.
COc1ccccc1OCc1cc(C(=O)N2CCCC(OCc3cccnc3)C2)no1 (stereo not given)	.	10%[46.1 µM]	-17%	-14%	2%	-4%[46.1 µM]	.	.
CC1(C)NC(=O)N(CC(O)CN2CCCC2)C1=O (stereo not given)	5%	8%	0%	5%	20%	2%	-4%	3.5%
O=S(=O)(NCCc1ccc(Cl)cc1)c1ccc(N2CCCCS2(=O)=O)cc1	.	.	.	.	5%	-17%[46.1 µM]	7%	-4.0%
COc1ccc(-n2c(=O)c3c4c(sc3n(Cc3ccccc3)c2=O)CN(C(C)=O)CC4)cc1OC	.	?	.	.	14%	.	?	-2.0%
COc1ccccc1N1CCN(C(=O)C2CCN(S(=O)(=O)c3ccc(F)cc3)CC2)CC1	-1%	?	12%	-6%	-11%	-4%	?	-1.3%
O=C(CN1C(=O)CSc2ccccc21)NC1CCCC1	-4%	-3%	-9%	-7%	0%	5%	3%	3.6%
Cc1oc(=O)c(NC(=O)c2ccccc2)cc1C(N)=O	0%	19%[46.1 µM]	-5%	.	18%	10%	.	.
CC(C)(C)n1nc2c(c1NC(=O)c1ccccc1F)CS(=O)C2 (stereo not given)	3%	.	-6%	9%	0%	.	-7%	4.2%
COc1ccc(NC2CS(=O)(=O)CC2NCc2ccccc2)cc1 (stereo not given)	9%	?	4%	7%	-8%	1%	-11%	0.7%
CN(C)S(=O)(=O)c1ccc(Cl)c(NC(=O)CN2CCN(Cc3ccc4c(c3)OCO4)CC2)c1	1%	.	-2%	1%	?	.	.	.
CCCCCn1c(=O)[nH]c2cc(C(=O)NCc3ccc(OC)cc3)ccc2c1=O	.	-8%[46.1 µM]	.	.	-8%	8%[46.1 µM]	0%	1.0%
Cn1c(Cc2cccs2)nnc1SCC(=O)N1CCCc2ccccc21	-3%	5%[46.1 µM]	2%	6%	1%	-14%	1%	-0.9%
O=C1CN(C(=O)COc2ccc(F)cc2Cl)c2ccccc2N1	1%	.	-4%	2%	?	.	.	.
C=CCn1c(SCC(=O)N(C)C)nc2sc3c(c2c1=O)CCC3	3%	.	-2%	0%	-7%	.	.	.
O=S(=O)(NCCSc1nnnn1-c1ccccc1)c1ccc(F)cc1	.	-17%[46.1 µM]	.	.	-6%	-23%[46.1 µM]	-16%	-2.5%
CCC(C)(C)n1nnnc1C(c1cc2ccc(OC)cc2[nH]c1=O)N1CCc2ccccc21 (stereo not given)	-1%	?	18%	?	-14%	-14%	?	-2.5%
Cc1nn(Cc2ccccc2)c(C)c1NC(=O)CCCn1nc([N+](=O)[O-])c(Cl)c1C	-2%	9%	-13%	-15%	-8%	-16%	9%	-1.1%
CCOP(=O)(c1ccc(N(C)C)cc1)C(O)c1ccncc1 (stereo not given)	0%	.	2%	-2%	-12%	.	.	.
Cn1nc(-c2ccccn2)nc2c(=O)n(C)c(=O)nc1-2	-1%	.	-7%	-32%	1.3µM*	.	.	.
Cc1ccc(CN=Cc2[nH]c3ccc(Br)c(Cl)c3c2O)cc1	-35%	?	-11%	-46%	.	?	?	-1.6%
Cc1cccn2c(=O)c(C=O)c(N3CCCCC3)nc12	0%	?	6%	0%	-9%	25%	.	.
O=C(CSC1=Nc2ccccc2C2=NC(c3ccccc3)C(=O)N12)NC1CCCCC1 (stereo not given)	7%	-9%	-4%	11%	59%[activator]	-20%	-11%	-11%
CC(C)CNS(=O)(=O)c1cc(C(=O)OCC(=O)N2CCOCC2)c(Cl)cc1Cl	4%	?	-13%	-5%	16%	?	.	.
O=S(=O)(NCCc1ccccn1)c1cccs1	3%	-1%	36%	3%	-7%	8%	-4%	1.0%

# Five entries from above, sorted by molecular weight, ascending:
Structure	SARS PLP yeast	MARV entry inh	RE007 growth inh	NS1 inh	2A StopGo	Lassa entry inh	Cruzain inh noDet	Cruzain inh Det
O=S(=O)(NCCc1ccccn1)c1cccs1	3%	-1%	36%	3%	-7%	8%	-4%	1.0%
Cc1cccn2c(=O)c(C=O)c(N3CCCCC3)nc12	0%	?	6%	0%	-9%	25%	.	.
O=C(CSC1=Nc2ccccc2C2=NC(c3ccccc3)C(=O)N12)NC1CCCCC1 (stereo not given)	7%	-9%	-4%	11%	59%[activator]	-20%	-11%	-11%
CCC(C)(C)n1nnnc1C(c1cc2ccc(OC)cc2[nH]c1=O)N1CCc2ccccc21 (stereo not given)	-1%	?	18%	?	-14%	-14%	?	-2.5%
CC(C)CNS(=O)(=O)c1cc(C(=O)OCC(=O)N2CCOCC2)c(Cl)cc1Cl	4%	?	-13%	-5%	16%	?	.	.

# Outcome played no part in choosing rows; 4.7% or so of the library scored in one or more.
